# INS promoter inh = inhibitors of insulin promoter-driven GFP, primary screen, imaging, TRM-6 cells (human fetal islet line), eGFP reporter, cell count; reporter expression induced with tamoxifen; inhibition, % at 2 µM; hit rate 0.9% among 130,000; AID 1273, 2008;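 active means inhibition above the mean plus 3 SD, with well images judged a real hit on visual review, cut at about 60% in these data, passing the limit was not always enough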
# RGS16-Gao = modulators of RGS16 binding to Galphao, primary screen, biochemical, human proteins, multiplexed bead flow cytometry | Regulator of G-protein signaling 16 (Homo sapiens) + Guanine nucleotide-binding protein … | bead-based flow cytometry RGS16-Galphao binding, fluorescence; actives lie on both sides | binding response (% of control), % at 10 µM | hit rate 0.38% among 220,000;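 active means below 25% or above 175%, edge rows of some plates excepted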;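 further: Galphao activated by GDP with aluminum fluoride before binding; 100% = wells without compound and 0% = beads without RGS; some results beyond the cut were filed as inactive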
# Target sequence (O15492 whole entry, looked up): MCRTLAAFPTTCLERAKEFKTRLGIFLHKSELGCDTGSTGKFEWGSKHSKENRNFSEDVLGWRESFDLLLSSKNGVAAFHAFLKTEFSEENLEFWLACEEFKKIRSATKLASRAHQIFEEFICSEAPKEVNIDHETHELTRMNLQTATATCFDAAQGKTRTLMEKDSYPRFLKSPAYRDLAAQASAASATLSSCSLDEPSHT
# Target sequence (P09471 whole entry, looked up): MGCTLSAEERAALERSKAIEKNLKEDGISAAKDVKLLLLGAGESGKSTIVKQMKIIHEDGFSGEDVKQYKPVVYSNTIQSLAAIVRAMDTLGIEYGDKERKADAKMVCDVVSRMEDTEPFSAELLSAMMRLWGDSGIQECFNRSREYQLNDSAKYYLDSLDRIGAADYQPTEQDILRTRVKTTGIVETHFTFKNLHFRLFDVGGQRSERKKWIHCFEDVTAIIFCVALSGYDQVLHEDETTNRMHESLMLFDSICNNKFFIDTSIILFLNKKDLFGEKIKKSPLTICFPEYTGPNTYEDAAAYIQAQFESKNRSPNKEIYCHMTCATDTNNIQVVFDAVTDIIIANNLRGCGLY
# PKD1 inh = inhibitors of human PKD1 kinase, biochemical, fluorescence polarization. Serine/threonine-protein kinase D1 (Homo sapiens), Q15139. PKD1 kinase fluorescence polarization assay. inhibition, %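 (about 10 µM by stock and volumes)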. hit rate 0.056% among 200,000. AID 797, 2007;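 active means inhibition of 50% or more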;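 further: controls were vehicle for no effect and a reference inhibitor for full effect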
# GALR2 ag = GALR2 receptor agonists, primary screen, cell-based; GALR2-expressing cells, agonist activation read-out; activation, %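 (tested at 5 µM)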; hit rate 0.48% among 140,000;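 active means above mean plus 3 SD of all compounds, about 5% in these data, not always enough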;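 further: 0% = vehicle buffer wells and 100% = reference agonist at full effect; tested in CHO reporter cells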
# Target sequence (O43603 whole entry, looked up): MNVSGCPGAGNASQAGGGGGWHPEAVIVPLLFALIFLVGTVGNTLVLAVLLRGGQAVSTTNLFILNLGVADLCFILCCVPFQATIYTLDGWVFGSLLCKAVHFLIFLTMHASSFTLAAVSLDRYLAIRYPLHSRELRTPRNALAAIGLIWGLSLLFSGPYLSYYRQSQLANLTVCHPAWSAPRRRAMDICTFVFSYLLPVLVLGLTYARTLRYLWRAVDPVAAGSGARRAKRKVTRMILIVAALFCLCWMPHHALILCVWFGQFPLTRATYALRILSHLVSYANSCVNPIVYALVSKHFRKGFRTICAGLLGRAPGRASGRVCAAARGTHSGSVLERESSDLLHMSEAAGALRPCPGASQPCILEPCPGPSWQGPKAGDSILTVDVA
# HSV replic up = enhancers of HSV replication in host cells, fold increase, host cell viability | HSV replication augmentation in cells | maximum fold increase | hit rate 0.005% among 220,000 | AID 1956, 2009;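 active means peak rise of 1.5-fold or more in the series; tested in PC3 cells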;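 further: first round at 10 µM; read as green reporter fluorescence; hits show the peak of a series up to 25 µM; 1 = signal of infected wells without compound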
# INS promoter inh cell count = second read-out of INS promoter inh, no call of its own (marks repeat the call); normalized cell count, %; measured here: cell count, toxicity; reference of the scale not given here;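 cells exposed to compound for 48 h; stained nuclei by imaging scaled within each plate; lower means fewer cells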
# HSV replic up primary fold = recorded beside HSV replic up, whose call it bears; fold increase; compound at 10 µM; measured here: primary screen fold increase 10 uM; tested in PC3 cells;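 GFP signal in the first replicate; 1 = infected wells without compound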
# * hit, by the source's call; i = inactive; nt = no result given.
# Value order: INS promoter inh	INS promoter inh cell count	RGS16-Gao	PKD1 inh	GALR2 ag	HSV replic up	HSV replic up primary fold
- N#Cc1ccc(CN2CCN(C(=O)c3ccccc3)CC2)c(Cl)c1
 : 0.0	121.1	100.5	-3.6	-1.9	i	0.82
- CCOC(=O)C1C(c2ccc(Cl)cc2)NC(=S)NC1(O)C(F)(F)F (configuration not stated)
 : nt	nt	101.7	-1.5	nt	i	0.7
- COc1ccc2c(C)cc(SCC(=O)NCCN3C(=O)CSC3=O)nc2c1
 : nt	nt	109.9	-6.1	-0.1	i	0.92
- CCN1CCN(Cc2c(O)ccc3c2O/C(=C\c2ccccc2)C3=O)CC1
 : -16.7	113.8	98.1	-1.5	nt	i	1.19
- O=C(O)CCSc1nnc(CNc2ccc(Cl)cc2)n1Cc1ccccc1
 : 30.8	160.3	103.9	-6.4	-0.4	i	0.81
- CN(C)c1ccc(CNc2nc(-c3ccccc3)nn2S(C)(=O)=O)cc1
 : -28.6	83.4	95.5	-15.5	nt	i	0.96
- CCCCn1c(=O)n(CC(=O)Nc2ccc(OC)c(Cl)c2)c(=O)c2c1nc(CO)n2CCC
 : -5.4	104.5	91.1	-1.4	-1.9	i	0.96
- CCOC(=O)N1CCN(C2=CC(=O)OC23CCCCC3)CC1
 : 6.1	120.4	184.9	-5.4	-2.5	i	0.75
- CC(=O)Nc1ccc(S(=O)(=O)NCCc2cc3c(C)ccc(C)c3[nH]c2=O)cc1
 : 30.0	176.8	68.2	-1.9	-1.4	i	0.9
- COc1cc(/C=C2\SC(=O)N(CCNC(=O)c3cnc(C)cn3)C2=O)cc(OC)c1OC
 : -17.9	89.5	97.1	0.6	-0.3	i	0.95

# Next section.
# Value order: INS promoter inh	INS promoter inh cell count	RGS16-Gao	PKD1 inh	GALR2 ag	HSV replic up	HSV replic up primary fold
- O=C(Cc1noc2ccccc12)NNC(=S)Nc1ccccc1
 : nt	nt	103.0	-4.9	nt	i	1.15
- COc1ccc(C2NC(=O)NC3=C2CCc2ccccc23)cc1 (configuration not stated)
 : nt	nt	100.1	-3.2	-0.5	i	1.05
- Cc1cc(C)n(C(=O)c2cc(F)c(F)cc2C)n1
 : -64.3	103.8	98.4	-0.6	nt	i	0.97
- O=C(CCCC(=O)N1CCN(c2ccccc2F)CC1)N1CCN(c2ccccc2F)CC1
 : 9.1	136.1	112.5	-11.7	-1.1	i	1.04
- COc1cc(CCc2ccc3c(c2)OCO3)oc(=O)c1
 : nt	nt	97.2	nt	nt	i	0.88
- CCOC(=O)c1nn(-c2ccccc2)c(-c2ccccc2)c1C(=O)c1ccccc1
 : 7.3	142.2	99.1	-0.1	-2.4	i	1.01
- COCCCNC(=O)CS(=O)Cc1nc(-c2cccc(OC)c2)oc1C (configuration not stated)
 : nt	nt	98.0	-1.2	-2.1	i	0.94
- Cc1cccc(C)c1NS(=O)(=O)c1c(C)[nH]c(=O)[nH]c1=O
 : -3.2	98.4	101.3	-5.2	-1.6	i	0.9
- Cc1c(Cl)cccc1NC(=S)N(CCN(C)C)C(C)c1ccccn1 (configuration not stated)
 : 0.0	74.1	145.0	-3.4	nt	i	1.04
- COc1ccc(C(=O)n2cc(C(=O)c3cc(C)ccc3O)cn2)cc1OC
 : 36.7	117.9	96.5	-0.4	0.5	i	0.74

# 2 records picked at random from those above:
# Value order: INS promoter inh	INS promoter inh cell count	RGS16-Gao	PKD1 inh	GALR2 ag	HSV replic up	HSV replic up primary fold
- Cc1c(Cl)cccc1NC(=S)N(CCN(C)C)C(C)c1ccccn1 (configuration not stated)
 : 0.0	74.1	145.0	-3.4	nt	i	1.04
- COc1ccc(C(=O)n2cc(C(=O)c3cc(C)ccc3O)cn2)cc1OC
 : 36.7	117.9	96.5	-0.4	0.5	i	0.74

# Continuation.
# Value order: INS promoter inh	INS promoter inh cell count	RGS16-Gao	PKD1 inh	GALR2 ag	HSV replic up	HSV replic up primary fold
- CCc1c(C(=O)Nc2ccc(OC)c(Cl)c2)[nH]c(C)c1C(C)=O
 : nt	nt	106.7	0.8	-1.3	i	0.74
- NC(=O)CNC(=O)[C@@H]1CC2(CC(c3cccc([N+](=O)[O-])c3)=NO2)CN1C(=O)c1ccccc1 (some centres not stated)
 : nt	nt	94.4	-2.6	-2.1	i	1.01
- O=C(/C=C/c1cccc([N+](=O)[O-])c1)Nc1cccc(NC(=O)c2cccs2)c1
 : 4.6	107.2	105.3	-2.6	-3.1	i	0.92
- Cn1cc(CN2CCN(Cc3ccccc3)C(CCO)C2)c(-c2ccccc2)n1 (configuration not stated)
 : nt	nt	105.6	-7.4	nt	i	0.96
- Cc1cc2ncn(C(=O)N3CCCCC3)c2cc1C
 : nt	nt	104.7	-2.2	-0.1	i	0.87
- N=C1SC(c2ccccc2)C(=O)N1c1ncc(Cc2ccccc2)s1 (configuration not stated)
 : -18.9	113.4	58.4	-9.2	-0.1	i	1.02
- COc1cc(C(=O)NC(=S)Nc2nccs2)cc(OC)c1OC
 : nt	nt	98.1	-3.6	nt	i	0.95
- NC(=O)c1ccccc1NC(=O)/C=C/c1ccc(Cl)cc1
 : 37.5	112.2	98.5	-4.5	-2.3	i	0.8
- O=C1C2C(C(=O)N1/N=C/c1cc(Br)cc([N+](=O)[O-])c1O)C1C=CC2C12CC2 (configuration not stated)
 : -12.5	89.7	100.6	-9.8	-2.6	i	0.98
- CCOC(=O)c1sc(=S)n(-c2ccc(Cl)cc2)c1SC
 : -6.7	99.4	75.4	2.3	-1.1	i	1.11

# Five entries from above, comma-delimited:
SMILES,INS promoter inh,INS promoter inh cell count,RGS16-Gao,PKD1 inh,GALR2 ag,HSV replic up,HSV replic up primary fold
NC(=O)c1ccccc1NC(=O)/C=C/c1ccc(Cl)cc1,37.5,112.2,98.5,-4.5,-2.3,i,0.8
CN(C)c1ccc(CNc2nc(-c3ccccc3)nn2S(C)(=O)=O)cc1,-28.6,83.4,95.5,-15.5,nt,i,0.96
O=C(CCCC(=O)N1CCN(c2ccccc2F)CC1)N1CCN(c2ccccc2F)CC1,9.1,136.1,112.5,-11.7,-1.1,i,1.04
CCOC(=O)c1nn(-c2ccccc2)c(-c2ccccc2)c1C(=O)c1ccccc1,7.3,142.2,99.1,-0.1,-2.4,i,1.01
COc1ccc(C(=O)n2cc(C(=O)c3cc(C)ccc3O)cn2)cc1OC,36.7,117.9,96.5,-0.4,0.5,i,0.74

# Later entries.
# Value order: INS promoter inh	INS promoter inh cell count	RGS16-Gao	PKD1 inh	GALR2 ag	HSV replic up	HSV replic up primary fold
- COc1cc2c(cc1OC)C(c1ccccc1)N(C(=O)CCl)CC2 (configuration not stated)
 : 9.7	122.2	96.4	3.0	-1.0	i	0.69
- Cc1ccc(-c2cc(C(=O)OCC(=O)N(C)C3CCS(=O)(=O)C3)c3ccccc3n2)c(C)c1 (configuration not stated)
 : nt	nt	100.3	-3.5	nt	i	0.83
- Cc1ccc(NC2=NCC(=O)N2C2CCCC2)c(C)c1
 : 21.1	120.6	109.9	-2.7	-3.7	i	0.99
- COc1ccccc1C(=O)N=C1NC(=O)CC2C(=O)NCCN12 (configuration not stated)
 : nt	nt	104.5	-7.5	nt	i	0.99
- Clc1ccc(C(c2nnnn2CCc2ccccc2)N2CCSCC2)cc1 (configuration not stated)
 : -60.5	47.1	108.1	2.5	0.6	i	0.79
- Oc1ccc(N=Nc2cccc(C(F)(F)F)c2)cc1C=Nc1ccc(N2CCOCC2)cc1
 : -20.7	101.5	143.3	-3.1	0.5	nt	nt
- CCOc1cc(/C=C2/NC(=O)N(CC(=O)OC)C2=O)ccc1O
 : -75.0	104.0	98.2	0.5	nt	i	0.97
- Cc1ccsc1/C=N/NC(=S)NCCc1ccccc1
 : nt	nt	105.7	-3.0	nt	i	0.91
- CC1CCN(C(=O)CN(c2ccc3c(c2)OCO3)S(C)(=O)=O)CC1
 : -317.1	51.8	100.8	-3.4	-2.4	i	0.8
- O=C(Nc1nc2ccccc2s1)c1ccc2c(c1)OCO2
 : 44.4	123.7	110.3	0.8	-1.6	i	1.02

# (next part)
# Value order: INS promoter inh	INS promoter inh cell count	RGS16-Gao	PKD1 inh	GALR2 ag	HSV replic up	HSV replic up primary fold
- O=C1c2cccc3c(N4CCCCC4)ccc(c23)C(=O)N1c1ccc(Cl)cn1
 : 4.5	158.8	nt	-2.8	-0.9	nt	nt
- COc1ccc2c(c1)CCc1cnc(N)nc1-2
 : nt	nt	103.0	0.1	nt	i	1.05
- O=S(=O)(c1ccc(Cl)c(F)c1)N1CCC(c2nc(-c3ccncc3)no2)CC1
 : 54.5	61.4	101.5	-5.1	-0.4	i	1.18
- Cc1ccc(OCC(=O)N2CCOCC2)c([N+](=O)[O-])n1
 : nt	nt	94.6	nt	nt	i	1.05
- O=C(O)CCC(=O)NNC(=O)c1ccc(Br)cc1
 : -2.9	129.3	94.7	-5.4	-0.2	i	0.98
- CCOc1cc(S(=O)(=O)NCCc2ccc(OC)c(OC)c2)c(OCC)cc1-n1cnnn1
 : -33.3	66.3	101.9	4.0	1.6	i	1.03
- Cc1ccccc1CN(c1ccc(C(=O)NCC2CCCO2)cc1)S(C)(=O)=O (configuration not stated)
 : -71.4	50.9	125.9	-7.9	-1.1	i	1.12
- CC(=O)c1c(CC(=O)O)[nH]n(-c2nc3ccccc3s2)c1=O
 : nt	nt	104.1	0.3	-0.7	i	1.03
- COc1ccc(N(CCCN2C(=O)c3cccc4cccc(c34)C2=O)C(=O)c2ccncc2)cc1
 : -70.0	186.9	97.7	-5.6	nt	i	0.81
- COc1cc(N)c(Cc2nccc3cc(OC)c(OC)cc23)cc1OC
 : nt	nt	108.7	2.3	nt	i	1.21

# Following part.
# Value order: INS promoter inh	INS promoter inh cell count	RGS16-Gao	PKD1 inh	GALR2 ag	HSV replic up	HSV replic up primary fold
- CC(=O)c1cccc(NC(=O)C(C)OC(=O)CNC(=O)c2ccc(C)s2)c1 (configuration not stated)
 : nt	nt	102.4	-0.1	nt	i	0.9
- CN(C)c1ccc(/C=N/N2C(=O)c3ccccc3C2=O)cc1
 : nt	nt	110.0	nt	nt	i	0.91
- Cc1ccccc1Cn1ccc(NC(=O)c2nn(C)cc2[N+](=O)[O-])n1
 : 84.6*	79.7*	121.2	2.3	-0.4	i	0.51
- COc1ccc(CN2C(=O)CCC2(C)C(=O)NCc2cccnc2)c(OC)c1 (configuration not stated)
 : -3.2	100.0	92.5	-0.1	-2.9	i	0.79
- Cc1ccnc(SCc2cc(=O)c(OC(=O)c3ccco3)co2)n1
 : 30.0	93.3	102.2	-12.4	-3.1	i	0.95
- N#Cc1c(Cl)nsc1NC(=O)c1ccccc1
 : 20.0	83.3	98.5	-1.7	nt	i	1.03
- O=C(Nc1ccccc1)Nc1nc2ccccc2s1
 : nt	nt	100.8	-5.8	nt	i	1.01
- Cc1nc(NCc2ccccn2)c2ccccc2n1
 : -20.0	124.5	38.4	7.8	-3.6	i	1.06
- CC1(C)NC(=O)N(CC(O)COc2cccc(F)c2)C1=O (configuration not stated)
 : nt	nt	103.2	-6.7	-2.6	i	0.99
- COc1ccc(F)cc1C(=O)C1CCCN(Cc2ccc(Sc3nncn3C)o2)C1 (configuration not stated)
 : -34.8	39.5	113.2	-5.2	nt	i	0.92

# Next part.
# Value order: INS promoter inh	INS promoter inh cell count	RGS16-Gao	PKD1 inh	GALR2 ag	HSV replic up	HSV replic up primary fold
- Cc1cccn2c(=O)c(C=O)c(N3CC(C)OC(C)C3)nc12 (configuration not stated)
 : nt	nt	100.2	-0.6	nt	i	0.97
- CC(=O)NC(=S)Nc1ccc(NC(=S)NC(=O)c2ccc([N+](=O)[O-])cc2)cc1
 : nt	nt	100.9	nt	nt	i	0.9
- NC(=O)CC[C@H](NC(=O)c1ccc(F)cc1)C(=O)OCC(=O)NCc1ccc(F)cc1
 : nt	nt	99.3	-0.3	nt	i	1.07
- Cc1ccccc1OCC(=O)Nc1ccccc1N1CCCCC1
 : 24.2	86.8	96.6	-9.9	1.4	i	0.93
- O=C(NCCCN1CCOCC1)c1ccccc1
 : -32.3	101.6	105.4	2.6	-1.0	i	0.967
- NS(=O)(=O)c1cccc(NC(=O)COC(=O)c2cc(-c3ccc(Cl)cc3)nc3ccccc23)c1
 : nt	nt	100.7	1.7	-0.2	i	0.82
- O=C(COc1ccc(/C=N/NC(=O)c2ccc(O)cc2)cc1)Nc1ccc([N+](=O)[O-])cc1
 : nt	nt	124.8	-2.8	0.7	i	1.02
- Oc1ccccc1Nc1ccccn1
 : nt	nt	103.4	nt	nt	i	1.02
- Oc1c(CN2CCCCC2)cc(COCc2ccccc2)c2cccnc12
 : 0.0	64.4	80.6	-7.5	-1.2	i	0.85
- CCC(=O)NC(=S)Nc1cccc(Cl)c1N1CCCC1
 : nt	nt	90.5	-6.6	nt	i	1.08

# Screening data deposited in PubChem by several laboratories.
